Bioassay records deposited in PubChem BioAssay by several laboratories.
T cruzi repl = T. cruzi replication inhibition | T. cruzi beta-gal in NIH3T3, luminescence, 90 h | inhibition, % (concentration not given with the values) | actives 1.4% (n = 300,000) | AID 1885;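 active means mean inhibition across valid replicates above about 55%, limit read from the data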;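 further: signal also drops with host cell toxicity which is not excluded here; 0% = plate median of DMSO wells and 100% = zero luminescence signal; higher percent means less beta-gal luminescence so fewer parasites; stock transfer was 50 nL into about 50 µL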
A1 inh = inhibitors of the anti-apoptotic protein A1, read as caspase activation; MEF A1-2A-BIM cells, Caspase-Glo 3/7 luminescence, 3 h; percent of clofoctol response, vehicle zero; caspase activation, % (no concentration beside the values); actives 0.066% (n = 330,000); AID 2462;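 active means over half of replicate activation scores above 10%, or exactly half above 10 with the replicate mean above 10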;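 further: wells of about 30 µL received 50 nL stock; many hits fall short of the cut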
UCH37 DUB inh = inhibitors of human deubiquitinating enzyme UCH37 | Q9Y5K5 | purified proteasome/UCH37, Ub-AMC cleavage fluorescence | inhibition, % (concentration not given with the values) | actives 0.33% (n = 330,000);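 active means mean of two replicates above 20%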;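 further: 0% = compound-free wells with enzyme and 100% = wells lacking proteasome; stock transfer was 100 nL into about 20 µL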
Target sequence (Q9Y5K5 whole entry, looked up): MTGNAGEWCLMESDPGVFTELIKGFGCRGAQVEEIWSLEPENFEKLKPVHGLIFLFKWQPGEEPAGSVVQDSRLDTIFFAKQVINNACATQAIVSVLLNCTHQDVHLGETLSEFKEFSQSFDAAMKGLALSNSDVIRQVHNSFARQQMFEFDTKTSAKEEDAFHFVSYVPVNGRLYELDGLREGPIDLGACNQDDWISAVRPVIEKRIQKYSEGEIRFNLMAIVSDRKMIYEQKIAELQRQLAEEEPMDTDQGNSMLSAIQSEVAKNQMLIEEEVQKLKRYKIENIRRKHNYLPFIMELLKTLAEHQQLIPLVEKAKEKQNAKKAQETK
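Test system – human UCH37 enzyme supplied as purified proteasome complex · Incubation – 30 min preincubation with enzyme, 25 min cleavage at room temperature · Detection – AMC fluorescence from Ub-AMC cleavage, excitation 355 nm, emission 460 nm · Benchmarks – no-proteasome wells (full inhibition) and compound-free wells (no inhibition)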
rRNA inh HTS = inhibitors of bacterial rRNA selective over humanized ribosomes. actives 1.6% (n = 350,000). E. coli WT GFP vs humanized-ribosome RFP mutants, fluorescence, 24 h; hits give low values; DMSO median 0, no signal -100. AID 720706. GFP signal change (wild-type ribosome), % (no concentration beside the values);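 active means significant combined selectivity score with lowered wild-type GFP, culture density cut under 30%, mutant RFP and density less affected; inactive means any of these conditions unmet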; further: one replicate is shown; some compounds called inactive have numbers as strong as hits
FGF22 binding = shifts melting point of recombinant human FGF22. actives 1.5% (n = 340,000). Q9HCT0. recombinant FGF22 thermal shift, SYPRO orange fluorescence; percent of sucrose octasulfate shift, DMSO zero. AID 651658. calls only at 9.99 µM;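 active means melting point raised past a set limit in the mean and every replicate; three in four hits are not shown here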
Target sequence (Q9HCT0 whole entry, looked up): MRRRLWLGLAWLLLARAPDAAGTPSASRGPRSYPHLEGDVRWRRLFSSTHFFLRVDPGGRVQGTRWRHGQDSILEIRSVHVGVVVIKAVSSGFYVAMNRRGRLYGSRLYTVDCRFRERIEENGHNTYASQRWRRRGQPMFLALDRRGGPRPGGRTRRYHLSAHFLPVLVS
Beta apoptosis = blocks beta cell apoptosis. INS-1E cytokine-induced death, ATP luminescence, 48 h; percent of positive-control rescue, neutral wells zero. protection from apoptosis, % (concentration not given with the values). actives 0.8% (n = 300,000). AID 435005;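 active means all replicates at 75% or more, or half of them and the mean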;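 further: 0% = cytokine-treated negative control wells and 100% = positive control rescue; higher means more ATP so stronger rescue from cytokine killing; wells of about 40 µL received 100 nL stock; the first replicate is given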
MLL AF4-AF9 inh = inhibitors of human MLL-AF4/AF9 interaction; AlphaScreen, biotin-AF4 peptide binding to FLAG-AF9; actives 0.47% (n = 350,000); inhibition, % at 10 µM; AID 651704; P42568;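 active means every replicate reaching a set inhibition limit, whatever the replicate mean, cut at about 25% in these data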;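 further: 0% = plate neutral control median and 100% = total signal loss; the record names both 10 and 1 µM as test concentration; the first replicate is given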
Target sequence (P42568 whole entry, looked up): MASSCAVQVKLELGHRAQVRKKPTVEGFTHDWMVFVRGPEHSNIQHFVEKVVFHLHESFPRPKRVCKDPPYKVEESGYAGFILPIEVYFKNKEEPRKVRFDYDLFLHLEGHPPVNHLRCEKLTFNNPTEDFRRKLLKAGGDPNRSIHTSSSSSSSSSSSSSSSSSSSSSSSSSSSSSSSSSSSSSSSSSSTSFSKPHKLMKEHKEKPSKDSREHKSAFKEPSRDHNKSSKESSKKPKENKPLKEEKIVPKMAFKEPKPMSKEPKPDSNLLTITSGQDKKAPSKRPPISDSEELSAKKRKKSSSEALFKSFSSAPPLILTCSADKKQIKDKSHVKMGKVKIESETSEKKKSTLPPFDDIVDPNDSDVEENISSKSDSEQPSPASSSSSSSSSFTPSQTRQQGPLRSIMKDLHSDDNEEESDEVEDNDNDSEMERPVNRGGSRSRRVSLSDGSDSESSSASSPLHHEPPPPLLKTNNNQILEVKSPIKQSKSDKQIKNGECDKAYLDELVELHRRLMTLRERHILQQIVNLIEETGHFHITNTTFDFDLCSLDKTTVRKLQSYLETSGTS
E coli growth = inhibitors of Escherichia coli growth | AID 1053175 | actives 0.21% (n = 330,000) | OD600 absorbance (test concentration not listed) | OD600, 23 h; hits give low values;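 active means OD600 absorbance below the run mean of sample wells minus 3.6 SD, in any replicate, cut at about 0.56 in these data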;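 further: stock transfer was 300 nL into about 60 µL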
rRNA inh HTS OD600 = recorded beside rRNA inh HTS, whose call it bears; OD600 change, %; measured here: OD600 growth;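 optical density of the mix in the first replicate; 0 = DMSO median and -100 = no signal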
rRNA inh HTS RFP = further read-out of rRNA inh HTS, marked with its call; RFP signal change, %; measured here: RFP humanized mutant strains;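 first replicate; 0 = DMSO median and -100 = no signal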
Numbers without * were called inactive; i = inactive; / = not tested or not shown.

SMILES | T cruzi repl | A1 inh | UCH37 DUB inh | rRNA inh HTS | rRNA inh HTS OD600 | rRNA inh HTS RFP | FGF22 binding | Beta apoptosis | MLL AF4-AF9 inh | E coli growth
COc1ccccc1-n1c(SCC(=O)NC2CCS(=O)(=O)C2)nc2cc([N+](=O)[O-])ccc21 (centres undefined) | 9 | -0.3 | 2.9 | / | / | / | i | -1 | 3.3 | 0.68
COc1cc(OC)c2c(-c3cccc(-c4ccc(O)cc4)c3)cc(=O)oc2c1 | / | / | 0.3 | -24* | -9.2* | 2.1* | i | / | -0.8 | 0.67
Cc1ccc(CNC(=O)CSc2ccc(-c3cccs3)nn2)cc1 | 11 | -0.6 | 5.3 | 9 | 11 | 1.1 | i | 3 | -3.9 | 0.68
Cc1ccc(N(C(=O)c2csnn2)C(C(=O)NC(C)(C)C)c2cccnc2)cc1C (centres undefined) | -2 | 1.4 | 2.1 | 7 | 9 | 1.4 | i | -2 | -1.6 | 0.67
O=C(O)c1cccc(OCc2ccccc2Cl)c1 | -1 | -4.2 | 2.8 | / | / | / | / | -2 | / | 0.74
CCOC(CNC(=O)CCc1c(C)nc2ncnn2c1C)OCC | -11 | 1.7 | 0.3 | / | / | / | / | -4 | / | 0.7
O=C(CN1C(=O)NC2NC(=O)NC21)N/N=C/c1ccccc1O (centres undefined) | -11 | -0.3 | / | 3 | 4 | -1.4 | i | -2 | -2.6 | /
Cc1ccccc1-n1c(SCC(=O)c2cc(C)n(C)c2C)nnc1-c1ccncc1 | 3 | 0.3 | 1.8 | / | / | / | / | / | / | 0.66
COC(=O)COc1ccc(C)cc1-n1nc2ccccc2n1 | -15 | 0.2 | -1.8 | -9 | -6 | -2.0 | i | -2 | -4.0 | 0.71
COc1ccc(OCC(=O)NCc2n[nH]c(=O)c3ccccc23)cc1 | -8 | 0.5 | 3.0 | -3 | 5 | -2.4 | i | -3 | -0.4 | 0.7
COc1cccc(CNC(=O)c2ccc(NC(=O)C3CCCO3)cc2)c1 (centres undefined) | 0 | -0.3 | 0.9 | / | / | / | / | -3 | / | 0.7
COc1ccc(/C=C(/CC(=O)NCc2ccc(Cl)cc2)c2nc3ccccc3s2)cc1 | 30 | 0.1 | -149 | / | / | / | / | 16 | / | 0.69
COc1ccccc1CN1C[C@@H]2C[C@@H](c3cccc(C)n3)N3CCC[C@@]23C1=O | 17 | -0.7 | -2.0 | 18 | 6 | 11 | i | -1 | -0.3 | 0.69
O=[N+]([O-])c1cccc2c(N3CCCC3)ccnc12 | 51 | 0.0 | 3.5 | -2 | -4 | 3.0 | i | 112* | -1.4 | 0.65
CCOC(=O)CCn1cc(F)c(=O)[nH]c1=O | -10 | -0.1 | 0.0 | 17 | 8 | 0.9 | i | -10 | 0.1 | 0.7
N#Cc1c(C#N)c(-c2ccccc2)n(-c2ccccc2)c1N | -10 | 0.0 | -67 | / | / | / | / | 18 | / | 0.79
O=c1[nH]c2c(s1)C=Nc1ccccc1N2 | 0 | 0.3 | 1.1 | / | / | / | / | 2 | / | 0.7
Cc1noc(NS(=O)(=O)c2ccc(NC(=O)CSc3nc4ccccc4s3)cc2)c1C | -15 | -0.1 | 5.1 | / | / | / | / | -2 | / | 0.66
O=C(NCCOc1cccc(Oc2ccccc2)c1)c1cc(-n2cnnc2)ccc1Cl | 13 | 0.2 | 0.8 | / | / | / | / | -3 | / | 0.71
Cc1ccccc1OCc1nc2c3c(ncn2n1)-c1ccccc1CC31CCCC1 | 8 | -0.1 | 1.6 | / | / | / | / | 13 | / | /
Cc1ccc(N(C(=O)CNC(=O)c2ccco2)C(C(=O)NC2CCCC2)c2ccncc2)c(C)c1 (centres undefined) | -2 | 0.7 | 3.2 | 5 | 12 | 1.2 | i | 2 | -1.3 | 0.64
Cc1cc(C)cc(NC(=O)COc2coc(CN3CCN(c4ccccc4)CC3)cc2=O)c1 | 1 | 0.7 | 3.5 | 2 | 6 | -1.3 | i | / | -13 | 0.69
CCCC1NC(=O)NC(C)=C1C(=O)OCC (centres undefined) | 5 | 0.1 | 1.6 | 7 | 8 | -1.1 | / | -1 | / | 0.73
CCN(CC(=O)Nc1ccc(OC)cc1)C(=O)c1cc(S(=O)(=O)N(C)C)ccc1N1CCCC1 | 4 | 1.0 | 3.2 | -1 | 5 | -3.1 | i | 6 | 1.1 | 0.58
CCC(C)(C)n1nnnc1C(c1cc2ccc(C)cc2[nH]c1=O)N(Cc1cccnc1)Cc1ccco1 (centres undefined) | 13 | 0.2 | 0.4 | -13 | -11 | 12 | i | -1 | -22 | 0.69
Continuation:
SMILES | T cruzi repl | A1 inh | UCH37 DUB inh | rRNA inh HTS | rRNA inh HTS OD600 | rRNA inh HTS RFP | FGF22 binding | Beta apoptosis | MLL AF4-AF9 inh | E coli growth
CN1C(=O)C(c2nnc(Nc3cccc4ccccc34)s2)C2CC1(C)Oc1ccccc12 (centres undefined) | / | 0.4 | 3.2 | -3 | -9 | 3.6 | i | -4 | 3.2 | 0.69
COc1ccc(/C=N/NC(=O)CN(C)S(=O)(=O)c2ccc(NC(C)=O)cc2)cc1 | -11 | -0.6 | / | 3 | 14 | 1.6 | i | -4 | 0.3 | /
O=C(NCCc1ccccc1)C1CCC(Cn2c(=O)c3ccccc3n(Cc3cccnc3)c2=O)CC1 (centres undefined) | 20 | 1.4 | 5.3 | / | / | / | / | 2 | / | 0.68
CCOC(=O)Cn1c(=O)oc2cc(S(=O)(=O)NCCc3ccc(C)cc3)ccc21 | -9 | -0.9 | 4.3 | -7 | -23 | 2.6 | i | -1 | -3.7 | 0.71
S=C(N/N=C/c1ccco1)NC1CC2CCC1C2 (centres undefined) | 22 | 0.2 | / | -2 | -13 | 1.8 | i | -16 | 14 | /
Cc1ccc(CNC(=O)C2CC(=O)N(C3CCCC3)C2)cc1 (centres undefined) | / | -0.4 | 2.4 | 2 | 7 | 2.4 | i | -3 | -0.5 | 0.65
CN1C(=O)/C(=C\c2cc(N=Nc3ccccc3)ccc2O)SC1=S | -3 | -0.2 | 12 | / | / | / | / | 13 | / | 0.77
CCCCn1c(N)c(N(CC(C)C)C(=O)CSc2ccccc2C)c(=O)[nH]c1=O | -7 | -0.4 | -1.2 | -3 | 1 | 5.7 | i | -15 | 1.8 | 0.65
CCOc1ccccc1NC(=O)C(OC(=O)c1ccccc1)c1ccccc1 (centres undefined) | 12 | 0.1 | 4.2 | -6 | 0 | -3.6 | i | / | 2.2 | 0.7
CCc1nnc(NC(=O)c2ccc(S(=O)(=O)N(CC)CC)cc2)s1 | -3 | -0.8 | 5.3 | -2 | 9 | -1.0 | i | -9 | 2.4 | 0.8
COc1ccc(Cl)cc1NC(=O)c1cc(-c2ccco2)on1 | 2 | 0.5 | -9.0 | 3 | 6 | 1.6 | i | -5 | 3.3 | 0.64
CCOc1ccc(C2(C)NC(=O)N(CCN(C)C)C2=O)cc1 (centres undefined) | -1 | 0.6 | 4.6 | 10 | 7 | -0.4 | i | -4 | -7.1 | 0.71
CCN(CC)c1ccc(/C=C2/C(=O)ON=C2C)cc1 | 7 | -0.7 | 5.2 | 1 | -2 | 2.0 | i | -2 | 15 | 0.72
COc1ccc(CCN2CC(C(=O)NC3CCCCC3)CC2=O)cc1OC (centres undefined) | -5 | 0.7 | 5.1 | 13 | 12 | -1.1 | i | -2 | / | 0.72
Cc1ccc(C(C(=O)NCc2ccccc2)N(C(=O)c2csnn2)C2CC2)cc1 (centres undefined) | 1 | 0.5 | 4.6 | 0 | -11 | -1.2 | i | -4 | 0.5 | 0.65
O=C(NC(=S)Nc1ccc(S(=O)(=O)N2CCCC2)cc1)C1CC1 | -20 | -0.3 | 3.1 | -20 | -19 | -3.1 | / | -10 | -1.9 | 0.66
CCn1c(SC(C)C(=O)NCC2CCCO2)nc2scc(-c3ccccc3)c2c1=O (centres undefined) | 19 | 0.8 | 5.9 | -2 | -9 | 3.5 | i | 8 | 6.4 | 0.7
Cc1cc(=O)[nH]c(N/N=C/c2cccc([N+](=O)[O-])c2)n1 | -26 | -1.2 | / | 14 | 9 | -7.5 | i | -6 | -4.3 | /
CCC(C)NC(=O)Cn1c(=O)n(CCCCC(=O)NCc2ccco2)c(=O)c2ccccc21 (centres undefined) | 0 | -0.3 | 0.1 | / | / | / | / | -4 | / | 0.76
CCN(CC)S(=O)(=O)c1ccc(C)c(NC(=S)N2CCN(C/C=C/c3ccccc3)CC2)c1 | 36 | -0.3 | -0.8 | -9 | -10 | 1.4 | i | 33 | 6.5 | 0.65
CN(C)C(CNC(=O)c1cccnc1Sc1ccccc1)c1ccco1 (centres undefined) | -6 | 0.1 | -2.6 | / | / | / | / | 3 | / | 0.66
CC1CC(C)CN(C(=O)c2cccc3c2-c2ccccc2C3=O)C1 (centres undefined) | 3 | -0.8 | 4.0 | 4 | -3 | 1.4 | i | -6 | / | 0.63
Cc1cc(NC(=O)CSCc2nc(-c3cccc(Cl)c3)oc2C)no1 | 9 | -0.1 | 2.5 | 7 | 6 | 2.3 | i | 1 | 3.8 | 0.7
C=CCn1c(=NC(=O)c2cccc(N3C(=O)CCC3=O)c2)sc2cccc(OC)c21 | 4 | -0.4 | -56 | 2 | -2 | -3.6 | i | -2 | -83 | 0.71
O=C(Nc1cccc2ccccc12)N1CCc2ccccc2C1 | -11 | 0.4 | -2.4 | / | / | / | / | 10 | / | 0.67

Part of the list above in order of number of heavy atoms, falling.
SMILES | T cruzi repl | A1 inh | UCH37 DUB inh | rRNA inh HTS | rRNA inh HTS OD600 | rRNA inh HTS RFP | FGF22 binding | Beta apoptosis | MLL AF4-AF9 inh | E coli growth
CCCCn1c(N)c(N(CC(C)C)C(=O)CSc2ccccc2C)c(=O)[nH]c1=O | -7 | -0.4 | -1.2 | -3 | 1 | 5.7 | i | -15 | 1.8 | 0.65
CN1C(=O)/C(=C\c2cc(N=Nc3ccccc3)ccc2O)SC1=S | -3 | -0.2 | 12 | / | / | / | / | 13 | / | 0.77
S=C(N/N=C/c1ccco1)NC1CC2CCC1C2 (centres undefined) | 22 | 0.2 | / | -2 | -13 | 1.8 | i | -16 | 14 | /

For convenience, 4 of the compounds above:
SMILES | T cruzi repl | A1 inh | UCH37 DUB inh | rRNA inh HTS | rRNA inh HTS OD600 | rRNA inh HTS RFP | FGF22 binding | Beta apoptosis | MLL AF4-AF9 inh | E coli growth
COc1ccc(CCN2CC(C(=O)NC3CCCCC3)CC2=O)cc1OC (centres undefined) | -5 | 0.7 | 5.1 | 13 | 12 | -1.1 | i | -2 | / | 0.72
Cc1ccc(C(C(=O)NCc2ccccc2)N(C(=O)c2csnn2)C2CC2)cc1 (centres undefined) | 1 | 0.5 | 4.6 | 0 | -11 | -1.2 | i | -4 | 0.5 | 0.65
O=C(NC(=S)Nc1ccc(S(=O)(=O)N2CCCC2)cc1)C1CC1 | -20 | -0.3 | 3.1 | -20 | -19 | -3.1 | / | -10 | -1.9 | 0.66
CCn1c(SC(C)C(=O)NCC2CCCO2)nc2scc(-c3ccccc3)c2c1=O (centres undefined) | 19 | 0.8 | 5.9 | -2 | -9 | 3.5 | i | 8 | 6.4 | 0.7

Only part of the results is shown. The share of hits here may be higher or lower than overall.
